TRPML1 ag = qHTS for Agonists of the Human Mucolipin Transient Receptor Potential 1 (TRPML1); Mucolipin-1 (Homo sapiens), Q9GZU1; TRPML1-expressing cells, Ca2+ dye fluorescence, FDSS; host cell line not named in the record; reference of the full effect not given here; activation, % (concentration not given with the values); 0.12% of 410,000 active; in the data active = activation above about 50%; inconclusive = about 30% to 50%; inactive = below about 30%; also: 0% is about no effect; the text of the record puts the active cut at 80%
Target sequence (Q9GZU1 whole entry, looked up): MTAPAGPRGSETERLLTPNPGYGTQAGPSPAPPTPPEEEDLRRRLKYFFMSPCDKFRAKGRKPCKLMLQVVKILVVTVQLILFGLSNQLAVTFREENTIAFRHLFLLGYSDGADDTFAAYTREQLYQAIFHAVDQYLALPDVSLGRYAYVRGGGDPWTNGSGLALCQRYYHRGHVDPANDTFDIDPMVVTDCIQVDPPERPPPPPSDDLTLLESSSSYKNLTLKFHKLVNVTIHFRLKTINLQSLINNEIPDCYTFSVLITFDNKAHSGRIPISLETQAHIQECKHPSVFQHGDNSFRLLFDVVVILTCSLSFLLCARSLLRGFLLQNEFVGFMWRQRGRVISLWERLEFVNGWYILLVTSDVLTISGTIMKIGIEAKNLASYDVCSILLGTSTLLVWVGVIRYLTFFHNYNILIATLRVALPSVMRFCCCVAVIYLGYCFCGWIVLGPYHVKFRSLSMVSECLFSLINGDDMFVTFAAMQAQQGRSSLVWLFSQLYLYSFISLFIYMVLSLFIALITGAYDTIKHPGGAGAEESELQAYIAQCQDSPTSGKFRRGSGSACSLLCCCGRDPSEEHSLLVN
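Calcium fluorescence on an FDSS kinetic reader gave the read-out. Tet-induced TRPML1-DL cells were plated overnight, dye-loaded (Ca8 with quencher, 45-90 min, room temperature, dark), then read 110 s after compound addition, and again 110 s after 4uM final 54-4 (EC80).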
TRPV1 PAM = HTS Assay for Compounds that Act as Potentiators of the Vanilloid Receptor 1 | 0.02% of 320,000 active | Transient receptor potential cation channel subfamily V member 1 (Homo sapiens), Q8NER1 | potentiation, % at 8.33 µM | TRPV1-expressing cells, Fluo-8 calcium influx, capsaicin EC20 potentiation; host cell line not named in the record; control for the full effect not named in the record; active means potentiation above 80%; inconclusive means 30% to 80%; inactive means below 30%; also: 0% is about no effect
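Cells expressing TRPV1 were dye-loaded with Fluo-8 and read kinetically: 10 s baseline, 3 min after compound (agonist portion), then 2 min after EC20 capsaicin (allosteric enhancer portion). Calcium-bound dye fluorescence at 480/520 nm.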
TRPML1 blocker = qHTS for Inhibitors of the Human Mucolipin Transient Receptor Potential 1 (TRPML1) | Mucolipin-1 (Homo sapiens), Q9GZU1 | TRPML1-inducible cells, Ca2+ dye fluorescence, FDSS; stronger effect = lower value; inhibition of EC80 agonist-evoked calcium signal | activity change, negative = inhibition, % (concentration not given with the values) | 0.02% of 390,000 active | AID 624415, 2012; in the data active means activity change below about -50%; inconclusive means about -30% to -50%; inactive means above about -30%;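 also: stimulus is agonist 54-4 at its EC80 concentration; % is scaled to controls: 0 for no effect and ±100 for the full control effect; compound concentration not given in the record; the text of the record puts the active cut at -80%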
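Tet-induced TRPML1-DL cells loaded with Ca8 no-wash calcium dye were read kinetically on FDSS. Compound addition was followed by EC80 agonist 54-4 (4 uM final); inhibition was read over 110 s.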
Sfp inh = qHTS Assay for Inhibitors of Bacillus subtilis Sfp phosphopantetheinyl transferase (PPTase) | AID 1490, 2009 | 3.5% of 310,000 active | Biochemical Sfp PPTase activity, qHTS | Potency, µM, for the others: max response, negative = inhibition, most hits filed as inhibitors | 4'-phosphopantetheinyl transferase ffp (Bacillus subtilis), Q9F4F7; active = well fitted inhibition curve with a large enough effect; inconclusive = small, poorly fitted or top-dose-only effect, or another doubt; inactive = no such curve, though single readings can be large or run the other way;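 also: the enzyme is Sfp with the accession as filed and its product quenches rhodamine fluorescence; potency is read from the fitted curve at half-maximal effect; 0% = enzyme reaction without inhibitor and -100% = no enzyme wells; top concentration of the series not given in the record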
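Step 1, compound plus 15 nM Sfp-PPTase, 15 min, room temperature. Step 2, add rhodamine-CoA (5 uM) and BHQ-2-YbbR (12.5 uM). Step 3, read 525/598 nm fluorescence at 0 and 30 min.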
Menin-MLL FL inh = qHTS Assay for Inhibitors Targeting the Menin-MLL Interaction in MLL Related Leukemias: Competition With Fluorescein Labeled MLL-derived Peptide; FP activity change, % at 61.4 µM; AID 1766, 2009; Fluorescence polarization, fluorescein-MLL peptide displacement from menin; 290,000 tested, under 10 active; inconclusive = falling polarisation curve, or a change in total fluorescence; inactive = total fluorescence flat and polarisation flat or rising; no compound was filed as active; the % refers to the polarisation; negative = inhibition;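 also: % of control where 0% means no effect; inhibitors lower the polarisation; unlabelled MLL peptide was the positive control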
PINK1 expr mod = A Quantitative High throughput Screen to Identify Chemical Modulators of PINK1 Expression; 0.2% of 410,000 active; AID 624263, 2012; Potency, µM (titrated, usually from 76.6 µM), for inactives: at the highest dose activation (PINK1 increase), most hits filed as activators; PINK1 immunofluorescence, high-content cytometry, 24 h; active = well fitted activation curve with a large enough effect; inconclusive = small, poorly fitted or top-dose-only effect; inactive = flat fitted curve, though single readings scatter; cell line not stated here;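 also: potency is read from the fitted curve at half-maximal effect; % of control where 0% means no effect; nearly all actives have a fitted effect of over 65% in size; a mitochondrial uncoupler was the plate control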
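Readout is PINK1 immunofluorescence, quantified alongside mitochondrial, cell and nuclear markers by laser-scanning microplate cytometry. Cells from a stable line were exposed to compound titrations (5 concentrations) for 24 hours, with CCCP controls.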
ClpP mod = qHTS Assay for Activators of ClpP | Potency, µM (top dose mostly 57.5 µM), for inactives: top-dose activity change, negative = active | ATP-dependent Clp protease proteolytic subunit (Bacillus subtilis (strain 168)), P80244 | AID 651965, 2013 | purified B. subtilis ClpP, FRET peptide cleavage, 20 min | 1.9% of 340,000 active; active = well fitted falling curve with a large enough effect; inconclusive = small, poorly fitted or top-dose-only effect; inactive = no such curve, though single readings can be large or run the other way; also: potency is read from the fitted curve at half-maximal effect; the source files actives as falling curves though it sought activators and does not explain the sign; nearly all actives have a fitted effect of over 65% in size; many hits overshoot -100%
Target sequence (P80244 whole entry, looked up): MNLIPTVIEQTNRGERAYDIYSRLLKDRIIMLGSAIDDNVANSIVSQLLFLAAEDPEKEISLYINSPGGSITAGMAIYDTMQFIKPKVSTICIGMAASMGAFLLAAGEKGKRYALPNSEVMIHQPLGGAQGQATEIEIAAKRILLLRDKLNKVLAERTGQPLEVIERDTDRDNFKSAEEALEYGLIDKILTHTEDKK
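Purified B. subtilis ClpP, 10 microg/mL final in Tris/HCl pH8 with KCl, BSA, glycerol and Tween-20, cleaved an Abz/nitrotyrosine-quenched decapeptide. Fluorescence (ex 320, em 430) was read at 0 and 20 min at room temperature. Delta was normalized to 5.8 microM ADEP and DMSO/no-enzyme controls.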
The depositor's hits bear a star; ? = inconclusive; nt = no result given; [ ] = dose if it differs, or a comment.

SMILES | TRPML1 ag | TRPV1 PAM | TRPML1 blocker | Sfp inh | Menin-MLL FL inh | PINK1 expr mod | ClpP mod
CCc1ccc(NC(=O)CCS(=O)(=O)c2cccc3nsnc23)cc1 | 0.8 | -6 | -12 | 79µM* | 1.3 | -1.1% | 0.3%
COc1cccc2c(N/N=C/c3ccccc3)cc(C)nc12 | 1.9 | -6 | -15 | 5% | -3.8 | 4.1% | -24%
CC(NC(=S)NCc1ccccc1)C12CC3CC(CC(C3)C1)C2 (stereo not given) | 0.0 | -14 | 0 | -20% | -1.9 | -1.4% | nt
Cc1ccc(NS(=O)(=O)c2ccc(N/N=C/c3ccccc3OCC(=O)O)c([N+](=O)[O-])c2)c(C)c1 | nt | -10 | nt | 79µM* | ? | 1.9% | -0.9%
CCOC(=O)C1CCCN(C(=O)c2cccc(S(=O)(=O)N(Cc3ccccc3)c3ccccc3OC)c2)C1 (stereo not given) | 0.1 | 5 | 40 | nt | nt | 0.9% | -3.7%
Cc1ccc(O/C=C2\OC(=O)c3ccccc32)cc1 | 1.1 | -9 | 7 | 13% | 1.8 | -0.2% | 0.2%
CC(=O)Nc1ccc(CN2CCCCCC2)cc1 | 0.5 | 5 | 15 | 23% | 1.0 | -0.9% | 0.4%
Cc1cccc(-c2noc(CCC(=O)N3CCN(c4cc(C)ccc4C)CC3)n2)c1 | 0.7 | nt | 0 | nt | nt | 3.1% | 0.8%
COc1cccc(C(=O)N2CCCC(CCC(=O)NCc3ccc(F)c(F)c3)C2)c1 (stereo not given) | 0.2 | 3 | -13 | 20% | -2.2 | 0.4% | 1.2%
COc1ccc(C2C(C(=O)Nc3cccnc3)=C(C)Nc3nc(-c4cccs4)nn32)cc1 (stereo not given) | -1.0 | 2 | -3 | 14% | -2.2 | -4.3% | -2.7%
COc1ccc(NC(=O)CCn2c(=O)c3cccn3c3cccnc32)c(OC)c1 | -0.6 | nt | 0 | nt | nt | 1.2% | -6.7%
Cn1c(C(=O)N2CCN(c3ccccn3)CC2)cc2ccccc21 | -0.9 | 5 | -1 | -5% | -2.4 | -1.0% | -7.0%
COC(=O)CN=Cc1c(C)[nH]n(-c2ccccc2)c1=O | -0.4 | 6 | -9 | -7% | 0.9 | 0.4% | nt
CC(=O)N1CCCc2cc(S(=O)(=O)N3CCC(C(=O)Nc4c(C)cccc4C)CC3)ccc21 | 0.4 | nt | 10 | nt | nt | -1.3% | -1.2%
Cc1cc(N2CCCCC2C)nc(-c2ccccc2O)n1 (stereo not given) | 2.0 | -33 | -1 | -21% | 2.6 | 17% | nt
Cc1ccc(C2=NC3(CCCCC3)NC2=S)cc1 | -0.5 | -2 | 2 | 14% | 6.8 | 2.6% | -5.5%
CN1OC(COC(=O)c2ccccc2)CC1c1ccccc1 (stereo not given) | 0.9 | -1 | 14 | 4% | 1.6 | 19%[38.3 µM] | -0.8%
COc1ccc(/C(O)=C/C(=O)C(=O)NNC(=O)C(O)(c2ccccc2)c2ccccc2)cc1 | -0.8 | 0 | 4 | 8% | 5.4 | 0.7% | -0.2%
Cc1cccc(CN2C(=O)CCSc3ccc(Cl)cc32)c1 | -0.2 | -9 | -1 | -4% | -0.1 | 8.7% | 0.4%
CCOC(=O)c1cc(C)sc1N1C(=O)C2C3C=CC(C3)C2C1=O (stereo not given) | -0.1 | 4 | -7 | 15% | 2.2 | 8.2%[38.3 µM] | -0.6%
O=C(CCc1ccccc1)NNC(=O)c1ccc(NC(=O)c2ccccc2)cc1 | -1.6 | 2 | -3 | -15% | 2.9 | 3.2% | 0.2%
COc1ccc(CNC(=O)N2CCN(C(=O)c3ccccc3)CC2)cc1 | 0.8 | 4 | 5 | nt | nt | 4.8% | nt
CN(CCc1ccccn1)C(=O)Nc1cccc(Cl)c1 | 0.4 | -5 | -14 | 21% | 0.5 | -0.5% | -2.8%
COCCNC(=O)CN1CCN(S(=O)(=O)c2ccc3c(c2)CCCC3)CC1 | -0.3 | 8 | -7 | nt | nt | -1.7% | -1.2%
Cc1cc(C)cc(NC(=O)COC(=O)CCCNC(=O)c2ccc(Cl)cc2)c1 | 0.4 | -5 | -24 | 2% | -1.4 | -1.6% | 1.5%
O=C(Cc1ccccc1)NCCSC1CCCCC1 | 0.9 | -17 | 6 | -13% | -0.3 | -0.1% | -0.5%
CCN(c1cccc(C)c1)S(=O)(=O)c1csc(C(N)=O)c1 | -0.6 | 3 | 3 | 7% | 2.2 | -1.2% | nt
COc1ccc(NC(=O)C2CC(=O)N(CCc3ccc(Cl)cc3)C2)cc1 (stereo not given) | 0.7 | 4 | -1 | 1% | nt | 0.5% | 3.8%
O=C(Nc1ccc(Oc2cccnc2)cc1)c1ccccc1Cl | -1.2 | 18 | 2 | 17% | -2.7 | 4.4% | nt
COc1ccccc1NS(=O)(=O)c1ccc(O)cc1 | -1.4 | -11 | -2 | 22% | 2.5 | -1.6% | -0.5%
CN(C)c1nc(OCCNC(=O)COc2ccc(Cl)cc2Cl)nc(N(C)C)n1 | 1.4 | -3 | 6 | 4% | -1.4 | 0.4% | -0.1%
Cc1ccc(-c2nn3nnnc3c3ccccc23)cc1 | 0.3 | -9 | 7 | -2% | 2.6 | 4.3% | -1.4%
CCCCCCSc1nnc(-c2cnn(-c3ccccc3)c2-n2cccc2)n1C | -0.1 | 0 | 18 | -13% | 6.2 | ? | -2.0%
O=C(NCC(=O)N1CCCC(C(F)(F)F)C1)c1ccc2ccccc2c1 (stereo not given) | -0.9 | -7 | -16 | nt | nt | 2.0% | nt
CN1CCc2nc(SCC(=O)Nc3cccc(F)c3)c(C#N)c(-c3cccs3)c2C1 | 0.7 | -1 | 15 | 79µM* | 6.3 | 5.5%[38.3 µM] | -1.0%
O=C1N=C(N2CCCC2)S/C1=C\c1cccc(Br)c1 | -1.0 | 2 | 55 | 4% | -0.3 | -0.4% | -2.2%
Oc1ccc(CNCC2COc3ccccc3O2)cc1 (stereo not given) | -0.2 | -4 | -7 | -24% | 2.7 | -0.9% | -2.9%
CCCn1c(Nc2ccccc2)nc2ccccc21 | 1.0 | 4 | -3 | 15% | -0.5 | -0.9% | -2.2%
COCCCNC(=O)CC(C)c1ccccc1 (stereo not given) | -0.2 | 2 | 12 | 5% | 2.2 | 3.7% | 0.1%
Cc1ccc2nc(-c3ccc(C#N)cc3)c(Cc3cccc(Cl)c3)n2c1 | 0.5 | nt | -12 | nt | nt | 2.8% | 4.4%
CCCNC(=O)C1(O)c2cc(Br)ccc2NC(=O)N1c1ccc(Cl)cc1 (stereo not given) | 4.0 | -2 | 14 | -13% | 3.3 | -1.6% | 0.7%
COc1ccc(NC(=O)C(Cc2c[nH]c3ccccc23)NC(=O)OC(C)(C)C)cc1 (stereo not given) | -1.0 | nt | -10 | nt | nt | 0.0% | 1.2%
CC(=O)c1ccc2c(c1)C1C=CCC1C(c1ccc(S(=O)(=O)N3CCOCC3)cc1)N2 (stereo not given) | 0.7 | 1 | -13 | -28% | 3.4 | -0.1% | 0.3%
O=C(O)CCn1c(=S)n(CCC(=O)O)c2ccccc21 | 0.3 | 9 | 5 | 24% | -2.0 | 0.7% | -0.1%
CCOC(=O)c1ccc(-c2csc(NC(=O)CN3CCC(C)CC3)n2)cc1 | 0.5 | 2 | 2 | 12% | 0.3 | 1.5% | nt

Results in Menin-MLL FL inh (2 entries from above):
SMILES	Menin-MLL FL inh
CN(C)c1nc(OCCNC(=O)COc2ccc(Cl)cc2Cl)nc(N(C)C)n1	-1.4
Oc1ccc(CNCC2COc3ccccc3O2)cc1 (stereo not given)	2.7

Next part
SMILES | TRPML1 ag | TRPV1 PAM | TRPML1 blocker | Sfp inh | Menin-MLL FL inh | PINK1 expr mod | ClpP mod
O=C(CCC(=O)N(c1ccc(F)cc1)C(C(=O)NC1CCCC1)c1ccncc1)Nc1cccnc1 (stereo not given) | -0.2 | 21 | 1 | 11% | -0.4 | 2.0% | 0.9%
CCOC(=O)c1c(C)c(C(=O)Nc2ccc(F)cc2)c(C)n1C | -0.5 | -3 | -2 | -18% | 3.4 | 5.7% | nt
CC1CN(C(=O)c2ccc(C(=O)c3ccccc3)cc2)CC(C)O1 (stereo not given) | -0.3 | -14 | -13 | 20% | 0.2 | 9.3%[38.3 µM] | -0.3%
CCOC(=O)c1sc2nc(CC(=O)OC)nc(N3CCN(c4ccc(OC)cc4)CC3)c2c1C | 3.5 | ? | 26 | 16% | -1.9 | 1.4%[38.3 µM] | 2.7%
CC(C(=O)NC(=O)NC1CCCCC1)N1CCN(C(c2ccccc2)c2ccccc2)CC1 (stereo not given) | 1.7 | -13 | -3 | 15% | -0.8 | 4.7% | -1.7%
CC1(C(=O)NS(=O)(=O)c2ccc(Cl)s2)CCN1C(=O)c1ccc(C2CCCCC2)cc1 (stereo not given) | -0.7 | nt | nt | nt | nt | 1.1% | 0.1%
CCc1ccc(CNC(=O)c2cnc3sc4cc(OC)ccc4n3c2=O)cc1 | -0.9 | nt | -10 | nt | nt | -1.4% | -7.4%
COc1ccc(CCN(C)Cc2cccc3ccccc23)cc1OC | 0.6 | 8 | -8 | 20% | -1.8 | 5.6% | 0.5%
CO/N=C(\Cn1ncc(NC2CCCCC2)c(Br)c1=O)c1ccc(Cl)cc1 | 1.6 | -31 | 15 | -12% | 1.2 | ? | ?
COc1cccc(-n2cc(CN(C)Cc3nc(Cc4ccccc4)no3)cn2)c1 | 2.6 | -7 | -7 | 11% | 1.7 | -0.4% | nt
